Six1-Eya2 blk: blocks human Six1 binding to Eya2. AlphaScreen GST-Six1/His-Eya2 binding, biochemical; active compounds read low; control for the full effect not named in the record. activity change, % (concentration not given with the values). 360,000 compounds, 0.56% hits. AID 651725; in the data active = activity change below about -65%; inconclusive = about -30% to -65%; inactive = above about -30%; note: % is set by controls: 0 for no effect and ±100 for the full control effect
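AlphaScreen luminescence read after one hour at 37 °C in darkness. Pin-transferred compounds met GST-Six1 and His-Eya2 protein (5X stock 250 nM/500 nM) plus glutathione donor and Ni-chelate acceptor beads (5X, 50 ug/mL).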
PINK1 expr mod: modulators of PINK1 expression; PINK1 immunofluorescence, high-content cytometry, 24 h; Potency, µM (highest dose often 76.6 µM), inactives show at the top dose activation (PINK1 increase), actives largely listed as activators; 410,000 compounds, 0.2% hits; AID 624263; active = well fitted activation curve with a large enough effect; inconclusive = small, poorly fitted or top-dose-only effect; inactive = flat fitted curve, though single readings scatter; cell line not stated here;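 note: potency is the fitted concentration of half-maximal effect; % of control where 0% means no effect; nearly all actives have a fitted effect of over 65% in size; a mitochondrial uncoupler was the plate control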
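Stable cell line, 250 cells/well, 12 h attachment; compounds pinned at 5 concentrations, 24 h; CCCP control. Fixed with nuclear dye, primary antibodies 12 h at 10 degrees C, secondary plus cell stain; laser-scanning cytometer read.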
TRPML1 inh: blocks the human TRPML1 channel; Q9GZU1; TRPML1-inducible cells, Ca2+ dye fluorescence, FDSS; active compounds read low; inhibition of EC80 agonist-evoked calcium signal; activity change, negative = inhibition, % (no concentration beside the values); 390,000 compounds, 0.02% hits; AID 624415; in the data active means activity change below about -50%; inconclusive means about -30% to -50%; inactive means above about -30%;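 note: stimulus is agonist 54-4 at its EC80 concentration; % is set by controls: 0 for no effect and ±100 for the full control effect; compound concentration not given in the record; the text of the record puts the active cut at -80%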
Target sequence (Q9GZU1 whole entry, looked up): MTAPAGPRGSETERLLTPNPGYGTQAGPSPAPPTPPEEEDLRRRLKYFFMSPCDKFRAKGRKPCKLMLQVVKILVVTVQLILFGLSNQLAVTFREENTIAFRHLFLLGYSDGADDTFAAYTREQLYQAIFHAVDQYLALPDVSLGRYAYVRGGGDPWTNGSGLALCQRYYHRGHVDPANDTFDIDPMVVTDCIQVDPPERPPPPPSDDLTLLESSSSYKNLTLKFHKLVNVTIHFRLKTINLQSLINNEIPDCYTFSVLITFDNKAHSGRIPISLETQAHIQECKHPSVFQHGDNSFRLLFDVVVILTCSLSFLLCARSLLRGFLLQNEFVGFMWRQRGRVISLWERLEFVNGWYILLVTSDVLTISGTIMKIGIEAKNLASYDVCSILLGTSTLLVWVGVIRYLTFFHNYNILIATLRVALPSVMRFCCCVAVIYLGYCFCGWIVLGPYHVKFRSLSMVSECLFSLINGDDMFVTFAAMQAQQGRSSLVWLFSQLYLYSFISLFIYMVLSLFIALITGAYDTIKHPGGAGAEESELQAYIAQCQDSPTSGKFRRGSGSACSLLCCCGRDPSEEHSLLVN
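Tet-induced TRPML1-DL cells loaded with Ca8 no-wash calcium dye were read kinetically on FDSS. Compound addition was followed by EC80 agonist 54-4 (4 uM final); inhibition was read over 110 s.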
D2 ag: human D2 receptor agonism in beta-arrestin assay | 360,000 compounds, 0.084% hits | DiscoveRx PathHunter D2 beta-arrestin, luminescence, 90 min; 100% = 57 uM dopamine signal | AID 624465 | activation, % (no concentration beside the values) | P14416; in the data active = activation above about 40%; inconclusive = about 15% to 40%; inactive = below about 15%; note: compound concentration not given in the record; the text of the record calls up to 30% inactive
Target sequence (P14416 whole entry, looked up): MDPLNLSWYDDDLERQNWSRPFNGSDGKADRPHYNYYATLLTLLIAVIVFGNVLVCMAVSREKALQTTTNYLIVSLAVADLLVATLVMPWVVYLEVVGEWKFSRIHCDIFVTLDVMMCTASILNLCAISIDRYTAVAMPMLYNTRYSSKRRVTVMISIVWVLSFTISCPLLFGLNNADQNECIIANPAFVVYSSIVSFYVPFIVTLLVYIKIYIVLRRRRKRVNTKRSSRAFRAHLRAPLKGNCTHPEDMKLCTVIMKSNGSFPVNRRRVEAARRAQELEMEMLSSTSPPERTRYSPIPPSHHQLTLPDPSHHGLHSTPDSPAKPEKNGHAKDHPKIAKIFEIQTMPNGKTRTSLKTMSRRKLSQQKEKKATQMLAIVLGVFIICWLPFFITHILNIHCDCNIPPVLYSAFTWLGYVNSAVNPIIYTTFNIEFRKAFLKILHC
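Agonist mode: compounds alone added to overnight-plated D2 PathHunter cells for 90 min at 37 C, with 57 uM final dopamine (EC100) defining full response. Beta-arrestin recruitment detected by chemiluminescent reagent, read after 1 h at ambient temperature.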
TRPML1 ag: human mucolipin-1 channel agonism. activation, % (no concentration beside the values). TRPML1-expressing cells, Ca2+ dye fluorescence, FDSS; host cell line not named in the record; reference of the full effect not given here. Q9GZU1. 410,000 compounds, 0.12% hits. AID 624414; in the data active = activation above about 50%; inconclusive = about 30% to 50%; inactive = below about 30%; note: 0% is about no effect; the text of the record puts the active cut at 80%
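Calcium fluorescence on an FDSS kinetic reader gave the read-out. Tet-induced TRPML1-DL cells were plated overnight, dye-loaded (Ca8 with quencher, 45-90 min, room temperature, dark), then read 110 s after compound addition, and again 110 s after 4uM final 54-4 (EC80).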
CtBP-E1A inh: inhibitors of CtBP/E1A interaction. AlphaScreen GST-E1A/His-CtBP binding, 1536-well; active compounds read low; control for the full effect not named in the record. activity change, % (concentration not given with the values). 340,000 compounds, 0.49% hits. AID 651724; in the data active means activity change below about -65%; inconclusive means about -30% to -65%; inactive means above about -30%; note: % is set by controls: 0 for no effect and ±100 for the full control effect
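AlphaScreen with 125 nM GST-E1A and 125 nM His-CtBP (5X stocks) in Tris pH 8.0, 300 mM NaCl, BSA, Tween 20, TCEP. Compounds preincubated 2 h at 37 deg C, then glutathione donor/nickel acceptor beads added for 1 h at 37 deg C in dark.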
* marks the source's active call; other numbers are inactive results; [ ] = another dose, or the depositor's remark. Compounds as they come. About 1% of those tested had a hit in this group.

How did CCCCC(=O)Nc1ccccc1Oc1ccccc1 do in these assays?
Six1-Eya2 blk: 6.9; PINK1 expr mod: 6.2%; TRPML1 inh: 23.1; D2 ag: -2.6; TRPML1 ag: 0.6

Results for O=C1/C(=C\c2ccc(Cl)cc2)CCC1CNc1ccc(Cl)cc1 (configuration not stated) ?
Six1-Eya2 blk: 6.4; PINK1 expr mod: -0.9%; TRPML1 inh: 23.0; D2 ag: 0.3; TRPML1 ag: 5.8; CtBP-E1A inh: 3.3

What do the screens show for `C=CCn1c(SC2CCOC2=O)nc2sc(C)c(C)c2c1=O` (configuration not stated)?
Six1-Eya2 blk: 4.0; PINK1 expr mod: 1.1%; TRPML1 inh: 6.9; D2 ag: 0.0; TRPML1 ag: -0.5; CtBP-E1A inh: 8.6

How did Cc1ccc(CCNC(=O)C2CCC(=O)N2C(C)C)cc1 (configuration not stated) do in these assays?
Six1-Eya2 blk: 4.2; PINK1 expr mod: 7.0%[38.3 µM]; TRPML1 inh: -17.3; D2 ag: -0.7; TRPML1 ag: -0.1; CtBP-E1A inh: 2.5

How did CCc1ccccc1NC(=S)NCC1CCN(c2ccc(OC)cc2)C1 (configuration not stated) do in these assays?
Six1-Eya2 blk: 0.0; PINK1 expr mod: -0.1%; TRPML1 inh: 1.4; D2 ag: 0.4; TRPML1 ag: -0.2

Results for Cc1ccccc1SCC(=O)N/N=C/c1ccc(F)cc1 ?
Six1-Eya2 blk: -7.3; PINK1 expr mod: 6.0%; TRPML1 inh: 2.1; D2 ag: 7.1; TRPML1 ag: 3.1; CtBP-E1A inh: -5.7

What do the screens show for `Cc1cc(=O)[nH]c(Nc2ccc(Cl)cc2)n1`?
Six1-Eya2 blk: -4.8; PINK1 expr mod: 2.2%; TRPML1 inh: 14.4; D2 ag: -3.2; TRPML1 ag: -0.5; CtBP-E1A inh: -5.6

What do the screens show for `COc1ccccc1CCNC(=O)c1ccoc1C`?
Six1-Eya2 blk: 22.1; PINK1 expr mod: 31.9%[38.3 µM]; TRPML1 inh: -3.2; D2 ag: -2.4; TRPML1 ag: 1.1; CtBP-E1A inh: 0.0

Results for CCCCNc1c(-c2ccc(OC)c(SC3CCCCC3)c2)nc2ccc(C)cn12 ?
Six1-Eya2 blk: 0.0; PINK1 expr mod: inconclusive; TRPML1 inh: 31.4; D2 ag: 47.6*; TRPML1 ag: 1.1; CtBP-E1A inh: -28.3

What do the screens show for `CCOc1ccc(C(=O)Nc2ccc(C(=O)OCc3cc(=O)n4c(C)csc4n3)cc2)cc1`?
PINK1 expr mod: -1.0%; TRPML1 inh: -8.4; TRPML1 ag: 0.1

What do the screens show for `CC(C)OC(=O)CC12CN3CN(C1)CC(CC(=O)OC(C)C)(C3)C2=O`?
Six1-Eya2 blk: 7.5; PINK1 expr mod: 0.3%; TRPML1 inh: 10.9; D2 ag: -4.0; TRPML1 ag: -0.1; CtBP-E1A inh: 24.4

How did Cc1[nH]c2ccccc2c1C(=O)CCl do in these assays?
Six1-Eya2 blk: 3.3; PINK1 expr mod: -0.9%; TRPML1 inh: 4.8; D2 ag: -3.1; TRPML1 ag: 0.2

Results for CC(C)c1nc(CNC(=O)C2CCC(=O)N(CCc3cccc(F)c3)C2)cs1 (configuration not stated) ?
Six1-Eya2 blk: 1.3; PINK1 expr mod: 0.5%; TRPML1 inh: 12.9; D2 ag: -5.3; TRPML1 ag: -0.2; CtBP-E1A inh: 2.2

How did Cc1ccc(C(=O)NCCNC(=O)COc2ccc(Cl)cc2)cn1 do in these assays?
Six1-Eya2 blk: 4.4; PINK1 expr mod: 1.2%; TRPML1 inh: 4.0; D2 ag: -2.2; TRPML1 ag: 0.5; CtBP-E1A inh: -0.3

Results for Cc1c(-c2cccc(NC(=O)c3cccs3)c2)nc2ncccn12 ?
Six1-Eya2 blk: inconclusive; PINK1 expr mod: 0.4%; TRPML1 inh: -12.2; D2 ag: -0.9; TRPML1 ag: -0.8; CtBP-E1A inh: inconclusive

What do the screens show for `COc1ccc2c(COC(=O)[C@H](C)NS(=O)(=O)c3ccccc3F)cc(=O)oc2c1`?
Six1-Eya2 blk: -8.1; PINK1 expr mod: 1.5%; TRPML1 inh: 10.6; D2 ag: -1.4; TRPML1 ag: 0.2; CtBP-E1A inh: 5.0

Results for C[C@H](CO)N1C[C@H](C)[C@@H](CN(C)S(=O)(=O)c2ccccc2F)Oc2ncc(Br)cc2C1=O ?
Six1-Eya2 blk: 3.8; PINK1 expr mod: 1.1%; TRPML1 inh: 3.9; D2 ag: 4.3; TRPML1 ag: -1.0; CtBP-E1A inh: 5.3

Results for COC(=O)c1c(NC(C)=O)sc2c1CCCC2 ?
Six1-Eya2 blk: -14.9; PINK1 expr mod: 2.3%; TRPML1 inh: 3.7; D2 ag: -2.2; TRPML1 ag: 2.4; CtBP-E1A inh: -0.5

How did COC(=O)c1c(NC(=O)c2ccc(C(C)(C)C)cc2)sc2c1CCC(C)C2 (configuration not stated) do in these assays?
PINK1 expr mod: 0.7%; TRPML1 inh: 14.6; TRPML1 ag: 1.6

Results for Cc1cccc(C(CC(=O)NCCc2ccccc2)c2ccccc2)c1O (configuration not stated) ?
Six1-Eya2 blk: 14.2; PINK1 expr mod: 1.2%; TRPML1 inh: 10.8; D2 ag: 7.2; TRPML1 ag: 2.7; CtBP-E1A inh: 2.6

How did NS(=O)(=O)c1ccc(NS(=O)(=O)c2ccc(C3CNC(=O)C3)cc2)cc1 (configuration not stated) do in these assays?
Six1-Eya2 blk: 3.5; PINK1 expr mod: -0.8%; TRPML1 inh: 2.2; D2 ag: 0.5; TRPML1 ag: -0.8; CtBP-E1A inh: -3.7

Results for CCOC(=O)c1ccccc1NC(=S)N1CCC(C(N)=O)CC1 ?
Six1-Eya2 blk: 4.0; PINK1 expr mod: 2.4%; TRPML1 inh: 32.7; D2 ag: 3.7; TRPML1 ag: 3.0

How did O=C(O)Cn1cnc2c(OCc3ccccc3)ncnc21 do in these assays?
Six1-Eya2 blk: 9.7; PINK1 expr mod: 0.7%; TRPML1 inh: -13.0; D2 ag: -2.3; TRPML1 ag: -0.3; CtBP-E1A inh: 9.1

What do the screens show for `NC(=S)Nc1ccccc1Br`?
Six1-Eya2 blk: 1.4; PINK1 expr mod: 1.1%; TRPML1 inh: 14.1; D2 ag: -1.3; TRPML1 ag: -0.3; CtBP-E1A inh: 0.4

Results for CCn1nc2cc(C(=O)NCC34CC5CC(CC(C5)C3)C4)ccc2c1OC ?
Six1-Eya2 blk: 3.8; PINK1 expr mod: 1.4%; TRPML1 inh: -5.8; D2 ag: -0.9; TRPML1 ag: -0.6; CtBP-E1A inh: 1.4

How did Cc1ccc(C)c(NS(=O)(=O)c2ccc(OCC(=O)NCc3ccco3)cc2)c1 do in these assays?
Six1-Eya2 blk: -1.6; PINK1 expr mod: -2.0%; TRPML1 inh: 1.2; D2 ag: -0.4; TRPML1 ag: -0.8; CtBP-E1A inh: 0.1

What do the screens show for `Cc1cc(C(F)(F)F)n(-c2nc(C(=O)NNS(=O)(=O)c3ccccc3)cs2)n1`?
Six1-Eya2 blk: -11.0; PINK1 expr mod: -0.9%; TRPML1 inh: 1.1; D2 ag: -0.8; TRPML1 ag: -0.4; CtBP-E1A inh: -7.0

How did COc1ccccc1C1C=C(c2ccc(C(C)C)cc2)Nc2nnnn21 (configuration not stated) do in these assays?
PINK1 expr mod: 1.9%; TRPML1 inh: 3.9; TRPML1 ag: 3.4

What do the screens show for `O=C(CSc1ccc(-c2ccncc2)nn1)c1ccccc1`?
Six1-Eya2 blk: -0.5; PINK1 expr mod: -0.7%; TRPML1 inh: -8.9; D2 ag: -2.0; TRPML1 ag: 0.2; CtBP-E1A inh: -1.4

How did COC(=O)c1cc(Nc2cc(C)nc3ncnn23)cc(C(=O)OC)c1 do in these assays?
Six1-Eya2 blk: 2.7; PINK1 expr mod: 1.6%; TRPML1 inh: -1.3; D2 ag: -3.5; TRPML1 ag: 0.5; CtBP-E1A inh: -0.6

How did O=C(CCN1C(=O)/C(=C/c2ccccc2Cl)SC1=S)N1CCOCC1 do in these assays?
Six1-Eya2 blk: -1.5; PINK1 expr mod: -0.1%; TRPML1 inh: 5.3; D2 ag: -3.1; TRPML1 ag: 0.5; CtBP-E1A inh: -1.7

What do the screens show for `COC(=O)c1ccc(CSc2nnc(NC(C)C)s2)cc1`?
Six1-Eya2 blk: -0.1; PINK1 expr mod: 2.1%; TRPML1 inh: -0.4; D2 ag: 2.0; TRPML1 ag: -0.5; CtBP-E1A inh: -4.7

What do the screens show for `C[C@@H](C(=O)Nc1ccc2c(c1)OCCO2)n1c(=O)[nH]c2ccccc2c1=O`?
Six1-Eya2 blk: 1.2; PINK1 expr mod: 0.7%; TRPML1 inh: 5.1; D2 ag: 5.3; TRPML1 ag: -0.5

What do the screens show for `COc1ccc(NC(=O)N(CCC(C)C)C(C)c2cccs2)c(OC)c1` (configuration not stated)?
PINK1 expr mod: -1.4%; TRPML1 inh: -16.6; TRPML1 ag: 1.8

What do the screens show for `CCN(CC)C(=O)Cn1cnc2sc(C(=O)NCCCN3CCOCC3)c(C)c2c1=O`?
Six1-Eya2 blk: 2.6; PINK1 expr mod: 2.2%; TRPML1 inh: -5.2; D2 ag: -2.2; TRPML1 ag: -0.4; CtBP-E1A inh: 8.3

Results for Cc1ccc(S(=O)(=O)N2CCOCC2)cc1NC(=O)Cn1nc(C)c([N+](=O)[O-])c1C ?
Six1-Eya2 blk: 2.0; PINK1 expr mod: 0.5%; TRPML1 inh: -10.3; D2 ag: -6.5; TRPML1 ag: 0.5; CtBP-E1A inh: -17.7

Results for CCCOc1ccc(C(=O)N/N=C/c2c[nH]c3ccc(Br)cc23)cc1 ?
Six1-Eya2 blk: -8.9; PINK1 expr mod: 0.5%; TRPML1 inh: 23.3; D2 ag: 0.1; TRPML1 ag: 3.1; CtBP-E1A inh: -29.4

What do the screens show for `Cc1noc(C)c1COc1ccc(C(=O)OCC(=O)Nc2ccc(S(N)(=O)=O)cc2)cc1`?
Six1-Eya2 blk: 0.1; PINK1 expr mod: 3.1%; TRPML1 inh: 16.5; D2 ag: 0.9; TRPML1 ag: -0.4

Results for CSc1ccccc1OCc1cc(C(=O)N2CCN(C3CCCC3)C(=O)C2)no1 ?
Six1-Eya2 blk: -4.8; PINK1 expr mod: 2.5%; TRPML1 inh: -13.0; D2 ag: 4.0; TRPML1 ag: -0.9; CtBP-E1A inh: 10.1

Entries from the list above containing a furan ring, fused or not (two):
What do the screens show for `COc1ccccc1CCNC(=O)c1ccoc1C`?
Six1-Eya2 blk: 22.1; PINK1 expr mod: 31.9%[38.3 µM]; TRPML1 inh: -3.2; D2 ag: -2.4; TRPML1 ag: 1.1; CtBP-E1A inh: 0.0

How did Cc1ccc(C)c(NS(=O)(=O)c2ccc(OCC(=O)NCc3ccco3)cc2)c1 do in these assays?
Six1-Eya2 blk: -1.6; PINK1 expr mod: -2.0%; TRPML1 inh: 1.2; D2 ag: -0.4; TRPML1 ag: -0.8; CtBP-E1A inh: 0.1

Screens (PubChem)
